# NS1 inh – inhibitors of influenza NS1 protein function; Potency, µM (series often up to 46.1 µM), without a hit: top-dose activity, positive = more growth; S. cerevisiae slowed by influenza A NS1, growth recovery by OD600; actives 0.4% (n = 270,000); AID 2326; also: actives are rising curves; nearly all actives have a fitted effect of over 50% in size
#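 OD600 was taken as the measure of yeast growth restored by compound in an NS1-expressing S. cerevisiae strain. Cells had been washed out of glucose medium and diluted 1:100 into galactose -URA medium, pH 6.0.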
# RE007 growth inh – less growth of the S. pombe RE007 Vpr strain; S. pombe RE007 Vpr strain, BacTiter-Glo ATP luminescence, 24 h; control for the full effect not named in the record; Potency, µM (titrated, usually from 92.2 µM), inactives show at the top dose activity change, negative = less growth; actives 0.21% (n = 360,000); AID 651644; active = well fitted falling curve with a large enough effect; inconclusive = small, poorly fitted or top-dose-only effect; inactive = no such curve, though single readings can be large or run the other way;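 also: % is scaled to controls: 0 for no effect and ±100 for the full control effect; nearly all actives have a fitted effect of over 50% in size; the assay follows cell death caused by Vpr and the record does not say whether a fall means rescue or toxicity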
#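 Fission yeast RE007 carrying one integrated HIV-1 vpr copy, seeded at OD 0.01 in PMG+AL medium with 23 nL pinned compound. Grown 24 h at 30 degrees; viability read by BacTiter-Glo luminescence after 5 min.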
# Lassa entry inh – blocks Lassa virus binding to or entry into cells; Lassa virus pseudotype entry inhibition, cell reporter; control for the full effect not named in the record; Potency, µM (highest dose often 37.9 µM), for the others: at the highest dose activity change, negative = inhibition, most hits filed as inhibitors; actives 1.2% (n = 300,000); active means well fitted inhibition curve with a large enough effect; inconclusive means small, poorly fitted or top-dose-only effect, or effect the other way; inactive means flat fitted curve, though single readings scatter; tested in HEK293 cells; also: % is scaled to controls: 0 for no effect and ±100 for the full control effect; nearly all actives have a fitted effect of over 50% in size; luciferase read-out
# Cruzain inh noDet – inhibitors of Trypanosoma cruzi cruzain without detergent; AID 1476; actives 2.3% (n = 200,000); Potency, µM, without a hit: max response, negative = inhibition, most hits filed as inhibitors; purified cruzain, Z-FR-AMC fluorescence, no detergent; active = well fitted curve in the direction sought with a large enough effect; inconclusive = small, poorly fitted or top-dose-only effect, or another doubt; inactive = no such curve, though single readings can be large; an effect the other way counts as inactive or inconclusive;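 also: plate controls were enzyme without inhibitor for no effect and buffer without enzyme for full effect; nearly all actives have a fitted effect of over 40% in size; top concentration of the series not given in the record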
# Target sequence (P25779 123-467 limits assumed): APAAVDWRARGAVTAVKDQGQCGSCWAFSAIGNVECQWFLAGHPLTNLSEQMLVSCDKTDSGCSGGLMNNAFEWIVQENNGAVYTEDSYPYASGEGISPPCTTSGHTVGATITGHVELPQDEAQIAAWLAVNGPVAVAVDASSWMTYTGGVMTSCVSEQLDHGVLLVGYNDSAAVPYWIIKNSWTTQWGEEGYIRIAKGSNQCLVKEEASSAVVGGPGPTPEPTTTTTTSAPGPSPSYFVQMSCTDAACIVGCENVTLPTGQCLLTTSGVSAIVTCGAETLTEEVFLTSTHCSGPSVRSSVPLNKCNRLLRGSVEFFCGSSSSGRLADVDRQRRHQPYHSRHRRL
#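 Detergent-free condition (0.00005% Triton X-100) in acetate buffer pH 5.5 with DTT. 1.5 nM enzyme and compound were pre-mixed 15 min, then 2 uM Z-FR-AMC substrate added; reaction progress from fluorescence change between first and third reads (60 s).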
# 2A StopGo – lowers the luciferase signal of an FMDV 2A StopGo reporter. human cells with a luciferase reporter of 2A StopGo recoding; control for the full effect not named in the record. Potency, µM (series often up to 57.9 µM), without a hit: at the highest dose signal change, negative = less light. actives 1.2% (n = 410,000). AID 1159524; active = well fitted falling curve with a large enough effect; inconclusive = small, poorly fitted or top-dose-only effect; inactive = no such curve, though single readings can be large or run the other way; tested in HEK293T cells; also: % is scaled to controls: 0 for no effect and ±100 for the full control effect; nearly all actives have a fitted effect of over 45% in size; luciferase light after 4 h
# Cruzain Triton – blocks cruzain activity in presence of Triton detergent | P25779 | actives 0.43% (n = 200,000) | Potency, µM, for inactives: max response, negative = inhibition, actives largely listed as inhibitors | purified cruzain, Z-FR-AMC fluorescence, 0.01% Triton; active = well fitted curve in the direction sought with a large enough effect; inconclusive = small, poorly fitted or top-dose-only effect, or another doubt; inactive = no such curve, though single readings can be large; an effect the other way counts as inactive or inconclusive;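 also: plate controls were neutral wells for no effect and buffer without enzyme for full effect; nearly all actives have a fitted effect of over 40% in size; top concentration of the series not given in the record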
#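 Compounds were screened in titration against cruzain (1.5 nM) with 0.01% Triton X-100 to counter colloidal aggregation. Activity was the AMC fluorescence increase over 60 s after adding 2 uM Z-FR-AMC at pH 5.5.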
# SARS PLpro yeast – blocks SARS-CoV papain-like protease in a yeast assay; AID 485353; S. cerevisiae expressing SARS-CoV PLpro, growth rescue; control for the full effect not named in the record; Potency, µM (titrated, usually from 32.9 µM), for the others: top-dose activity, positive = growth rescue; actives 0.19% (n = 330,000); also: 0% is about no effect; nearly all actives have a fitted effect of over 55% in size; growth read by luminescence after 48 h
# MARV entry inh – Marburg virus entry inhibition | Marburg virus pseudotyped entry inhibition, cell reporter; control for the full effect not named in the record; about a third of the inactives were read at about 46 µM | Potency, µM (highest dose often 37.8 µM), inactives show at the highest dose activity change, negative = inhibition, hits mostly inhibitors | actives 1.8% (n = 300,000); active = well fitted inhibition curve with a large enough effect; inconclusive = small, poorly fitted or top-dose-only effect, or effect the other way; inactive = flat fitted curve, though single readings scatter; tested in HEK293 cells; about a fifth of its hits are not listed in these tables; also: % is scaled to controls: 0 for no effect and ±100 for the full control effect; luciferase read-out
# Starred values were filed as active, the others as inactive; ? = inconclusive; · = not tested or not shown; & = joins results of further samples; [ ] = dose if it differs, or a comment. Unless noted, calls follow the shape of the dose curve; as a rule, active means well fitted rising curve with a large enough effect; inconclusive means small, poorly fitted or top-dose-only effect; inactive means no such curve, though single readings can be large or run the other way. Potency is read from the fitted curve at half-maximal effect.
SMILES,NS1 inh,RE007 growth inh,Lassa entry inh,Cruzain inh noDet,2A StopGo,Cruzain Triton,SARS PLpro yeast,MARV entry inh
COc1cc2nc(CN3CCC(C(O)(c4ccccc4)c4ccccc4)CC3)[nH]c(=O)c2cc1OC,·,8%,-8%,·,-25%,·,2%,-4%
Cc1cc(N2C(=O)C3C4c5ccccc5C(c5ccccc54)C3C2=O)no1 (stereo not given),10%,7%,?,1%,?,0.6%,-4%,?
COc1ccc(C2CC(=O)C3=C(C2)Nc2ccccc2N(C(=O)CCC(=O)O)C3c2ccc(F)cc2)cc1OC (stereo not given),10%,-8%,8%,·,-1%,·,0%,13%[46.1 µM]
CCN(CC)CCn1c(-c2ccccc2)nc(=S)c2c1CC(C)(C)OC2,6%,18%,9%,-16%,-17%,-7.2%,0%,19%
Cc1ccc(OCC(=O)OCc2c(C)noc2C)cc1C,-4%,6%,3%,3%,-2%,-2.2%,-12%,?
O=C(c1cc(F)cc2c1OCOC2)N1CCN(c2ccc(F)cc2)CC1,-1%,-4%,14%,·,-15%,·,0%,?
Cc1ccccc1OCC(=O)NNC(=O)CSc1nc(N)cc(N)n1,·,-10%,-3%,·,-7%,·,0%,-13%[46.1 µM]
O=C(NC(=S)NNC(=O)c1ccccc1O)c1cccnc1,·,4%,-16%,·,24%,·,3%,-7%
CC1(C)C/C(=N/Nc2ccc([N+](=O)[O-])cc2[N+](=O)[O-])C(C)(C)O1,·,1%,-1%,·,-22%,·,·,-1%
COc1ccc2oc(C(=O)C3CC3)c(N)c2c1,-10%,?,17%,0%,-1%,-12%,-5%,16%
Cn1c(Cn2c(=O)sc3ccccc32)nnc1SCC(=O)NC1CCCCC1,-7%,6%,·,4%,-15%,-0.9%,-2%,·
CCOC(=O)c1c(-c2ccccc2)oc2ccc(N(C(C)=O)S(=O)(=O)c3ccc(CC)cc3)cc12,·,·,?,-17%,-10%,-3.4%,·,?
CC(C(=O)NC1CCCC1)N1CCN(Cc2ccccc2)CC1 (stereo not given),·,-13%,-15%[46.1 µM],·,-16%,·,-1%,-14%[46.1 µM]
Cc1c(NC(=O)C(C)OC(=O)c2cccc([N+](=O)[O-])c2)c(=O)n(-c2ccccc2)n1C (stereo not given),·,8%,7%,·,-14%,·,0%,-23%[46.1 µM]
O=C(CCC(=O)Nc1ccc(F)cc1)N/N=C/c1ccccc1O,·,-1%,-2%,·,63%[activator],·,-6%,-20%[46.1 µM]
CN1CCN(c2ccccc2NC(=O)c2cc3c(s2)-c2ccccc2OC3)CC1,-4%,-10%,·,·,-21%,·,-9%,·
O=C(OCC1OC(n2ccc(=O)[nH]c2=O)C2OC12)c1ccccc1 (stereo not given),·,-8%,21%[46.1 µM],·,-12%,·,·,4%[46.1 µM]
Cn1nnc2cc(C(=O)N3CCN(c4ccccc4)CC3)ccc21,2%,-15%,1%,-10%,-14%,9.4%,1%,?
CCOc1cc2[nH]c(=S)n(CC3CCCO3)c(=O)c2cc1OCC (stereo not given),-4%,-6%,-3%,-4%,-18%,0.1%,8%,-11%
CCOC(=O)CNC(=O)N1CCN(S(=O)(=O)c2ccc3c(ccn3C)c2)CC1,·,·,18%[46.1 µM],-17%,-10%,-1.2%,·,·
O=[N+]([O-])c1cc(Cl)ccc1N1CCN(c2cccc(C(F)(F)F)c2)CC1,-6%,-7%,?,5%,-11%,-7.7%,5%,-4%
COc1ccc(S(=O)(=O)N2CCN3CCCC3C2)cc1 (stereo not given),2%,6%,21%[46.1 µM],·,0%,·,22%,?
COC(=O)c1c(NC(=O)CSc2nnnn2-c2ccccc2)sc2c1CCC(C(C)(C)C)C2 (stereo not given),14%,-29%,18%,6.3µM*,-20%,-2.0%,4%,?
COc1ccc(NC(=O)CCOc2ccccc2C)cc1S(=O)(=O)N1CCCCC1,·,2%,?,·,?,·,3%,?
CCC(=O)c1ccc(OCC(=O)OCC(=O)N2CCN(c3ccc(OC)cc3)CC2)cc1,·,13%,-2%,·,-6%,·,1%,24%
CN(c1ccccc1)c1nc(N2CCCC2)nc(-n2ccnc2)n1,-262%,?,?,-5%,?,-5.4%,-30%,-25%[46.1 µM]
CCN(Cc1ccccc1)S(=O)(=O)c1ccc(C(=O)N2CCN(c3nc4ccccc4s3)CC2)cc1,5%,1%,0%,3%,10µM*,-6.6%,2.8µM*,?
COc1ccc(CCNC(=S)N2CCN(S(=O)(=O)c3ccccc3)CC2)cc1,·,7%,-17%,·,3%,·,6%,-4%
c1ccc(CNC2=NCCC2)nc1,-1%,-9%,0%,-2%,14%,4.9%,0%,4%
CN(C)S(=O)(=O)c1ccc(NC(=O)COc2ncnc3c2cnn3-c2ccccc2)cc1,8%,15%,3%,-5%,-8%,-1.9%,5%,?
CN1C(=O)C2(SCC(=O)N2c2cccc(C(F)(F)F)c2)c2ccccc21 (stereo not given),·,·,22%[46.1 µM],?,-29%,-6.2%,·,·
Cc1cc(C(=O)OCC(=O)N2C(C)CCCC2C)c2ccccc2n1 (stereo not given),·,19%,?,·,?,·,-11%,?
CNC(=O)C1CCN(Cc2cc3ccccc3n2Cc2ccccc2C)CC1,·,·,0%[46.1 µM],13%,-19%,2.1%,·,·
CC(C)Cc1nnc(NC(=O)Cc2ccccc2[N+](=O)[O-])s1,-3%,-4%,?,9%,0%,-1.8%,-8%,-4%
CCCCn1c(SCC(=O)N2CCc3ccccc32)nnc1-c1ccncc1,-40%,-2%,·,·,-14%,·,1%,·
Cc1ccc(NC(=O)CCCSc2ccccc2)cc1S(=O)(=O)N1CCOCC1,·,-2%,?,·,28µM*,·,0%,?
NC(=O)c1cc2c(s1)-c1cc(Cl)ccc1SC2,-12%,-1%,·,·,50%[activator],·,0%,·
COc1cc(NC(=O)c2ccccc2)ccc1NC(=O)c1cc2ccccc2o1,-3%,5%,10%&28%[46.1 µM],3%,-14%&7%,0.7%,1%,?
CN1CCCC(C(=O)C(C#N)c2ccccc2)C1 (stereo not given),1%,-15%,3%,-11%,5%,2.6%,-5%,-1%[46.1 µM]
Cc1ccc2[nH]c(=O)c(CN(CCO)Cc3nnnn3CCc3ccccc3)cc2c1,-8%,22%,-7%,-4%,3%,1.5%,-5%,-22%
COc1ccc(/C=N/NC(=O)Cn2cnc3c2c(=O)n(C)c(=O)n3C)c(OC)c1OC,4%,2%,-3%,·,17%,·,4%,3%
O=C(Cn1nc(-c2ccccc2)c2c(c1=O)CCCC2)Nc1ccc(F)c(Cl)c1,·,·,6%[46.1 µM],-5%,-11%,-6.6%,·,-16%[46.1 µM]
O=C(CCN1C(=O)c2ccc([N+](=O)[O-])cc2C1=O)Nc1nccs1,5%,13%,7%,·,1%,·,-3%,0%[46.1 µM]
Cc1ccc(S(=O)(=O)NNC(=O)Cc2cccn2C)cc1,12%,-14%,·,·,16%,·,-2%,·
O=C(NCc1noc2ccccc12)Nc1ccc(F)cc1F,·,·,?,3%,22%,-3.2%,·,·
C=CCn1c(=O)[nH]c2cc(C(=O)N3CCN(c4cccc(Cl)c4)CC3)ccc2c1=O,-15%,-2%,-23%,7%,28µM*,-7.8%,-10%,?
COc1ccc(C(=O)N2CCN(CCCc3ccccc3)CC2)cc1OC,0%,-7%,-21%,·,?,·,0%,-11%
CC(C)Oc1ccc(S(=O)(=O)N2CCCCC2)cc1NC(=O)CN1C(=O)NC(C)(C2CC2)C1=O (stereo not given),·,11%,1%,·,-18%,·,-14%,?
CNS(=O)(=O)c1cccc(C(=O)OCC(=O)c2cc(C)n(-c3ccc4c(c3)OCO4)c2C)c1,?,1%,-3%,?,12%,1.4%,1%,-2%&-2%
CNCCc1c(C)n[nH]c1C,0%,1%,12%,10%,-10%,6.3%,-1%,-1%
Cc1cc(OCC(=O)N(C(C)C)C(C)C)ccc1Cl,·,-5%,-26%[46.1 µM],·,?,·,0%,-1%[46.1 µM]
Cc1ccc(C2=NS(=O)(=O)N(C)C(C(=O)N3CCCCC3)=C2)cc1,3%,0%,·,·,4%,·,4%,·
Cc1ccc2cc(CNC(C)C)c(=O)[nH]c2c1,1%,-9%,0%,-4%,-13%,-2.6%,-1%,-6%
CC(Oc1ccc(Cl)cc1Cl)c1nc(-c2ccc(NC(=O)c3cccnc3)cc2)no1 (stereo not given),-57%,?,?,?,28µM*,-1.5%,-3%,11µM*
Cc1ccc2oc(-c3ccccc3)c(C(=O)O)c(=O)c2c1,-213%,?,·,-15%,33%[activator],-3.4%,-26%,?
O=C(NCc1cccnc1)C(C(=O)c1ccc(F)cc1)n1ccccc1=O (stereo not given),3%,7%,14%,7%,11%,2.6%,3%,2%
COc1ccc2nc(N3C(=O)C(O)=C(C(=O)c4ccco4)C3c3ccc(C)o3)sc2c1 (stereo not given),·,-16%,8%,·,-2%,·,-6%,0%[46.1 µM]
COc1cccc(C2C(C(=O)Nc3ccccc3OC)=C(C)Nc3nc(-c4ccco4)nn32)c1 (stereo not given),·,·,?,18%,-13%,-8.3%,·,-11%[46.1 µM]
CCN(c1ccccc1)S(=O)(=O)c1ccc(OC)c(NC(=O)COc2ccc(C(C)=O)cc2)c1,·,-5%,-22%,·,-25%,·,-5%,-21%[46.1 µM]
C/C(=N\NC(=O)c1cc(-c2ccco2)nc2ccccc12)c1cccnc1,10%,-13%,·,·,-9%,·,-3%,·
# (list continues)
SMILES,NS1 inh,RE007 growth inh,Lassa entry inh,Cruzain inh noDet,2A StopGo,Cruzain Triton,SARS PLpro yeast,MARV entry inh
CN(CCO)c1ncnc2nc[nH]c12,0%,13%,·,-1%,0%,-1.6%,-5%,·
OC(CNc1ccnc2cc(Cl)ccc12)CNC1CCCCC1 (stereo not given),·,14%,?,·,-16%,·,·,?
c1ccc2scnc2c1,·,-6%,·,-4%,-21%,-2.5%,·,·
COc1ccc(OC)c(C(=O)CN2C(=O)C(=O)N(C3CCCC3)C2=O)c1,·,-3%,12%,·,-10%,·,-5%,17%

# Screening results from PubChem BioAssay.
